rRNA inh HTS = inhibitors of bacterial rRNA selective over humanized ribosomes. E. coli WT GFP vs humanized-ribosome RFP mutants, fluorescence, 24 h; hits give low values; DMSO median 0, no signal -100. AID 720706. GFP signal change (wild-type ribosome), % (test concentration not listed). 1.6% of 350,000 active;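 active = significant combined selectivity score with lowered wild-type GFP, culture density cut under 30%, mutant RFP and density less affected; inactive = any of these conditions unmet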; also: one replicate is shown; some compounds called inactive have numbers as strong as hits
Bfl-1 A1 inh = inhibitors of the anti-apoptotic protein A1, read as caspase activation; caspase activation, % (test concentration not listed); MEF A1-2A-BIM cells, Caspase-Glo 3/7 luminescence, 3 h; percent of clofoctol response, vehicle zero; 0.066% of 330,000 active; AID 2462;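 active = over half of replicate activation scores above 10%, or exactly half above 10 with the replicate mean above 10; inconclusive = replicate mean below 10 yet half the replicates above 10; inactive = over half of replicates below 10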;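 also: wells of about 30 µL received 50 nL stock; many hits fall short of the cut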
T cruzi repl = T. cruzi replication inhibition; 1.4% of 300,000 active; inhibition, % (concentration not given with the values); T. cruzi beta-gal in NIH3T3, luminescence, 90 h; AID 1885;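 active = mean inhibition across valid replicates above about 55%, limit read from the data; inconclusive = mean below that limit but half or more replicates reach it; inactive = mean below it, under half of replicates reach it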;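 also: signal also drops with host cell toxicity which is not excluded here; 0% = plate median of DMSO wells and 100% = zero luminescence signal; higher percent means less beta-gal luminescence so fewer parasites; stock transfer was 50 nL into about 50 µL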
LANA-H2A inh = blocks KSHV LANA binding to histone H2A/H2B. Q9QR71. cell-free LANA-H2A/H2B peptide, fluorescence polarization. inhibition, % (no concentration beside the values). 0.6% of 320,000 active. AID 2629; in the data active = inhibition mostly above about 10%, no sharp cut-off; inactive = mostly below about 6.7%;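 also: stock transfer was 7.5 nL into about 10 µL; 0% = median of vehicle wells and 100% = median of positive control wells; one replicate is shown; the record names a cut of 25% in any replicate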
Target sequence (Q9QR71 whole entry, looked up): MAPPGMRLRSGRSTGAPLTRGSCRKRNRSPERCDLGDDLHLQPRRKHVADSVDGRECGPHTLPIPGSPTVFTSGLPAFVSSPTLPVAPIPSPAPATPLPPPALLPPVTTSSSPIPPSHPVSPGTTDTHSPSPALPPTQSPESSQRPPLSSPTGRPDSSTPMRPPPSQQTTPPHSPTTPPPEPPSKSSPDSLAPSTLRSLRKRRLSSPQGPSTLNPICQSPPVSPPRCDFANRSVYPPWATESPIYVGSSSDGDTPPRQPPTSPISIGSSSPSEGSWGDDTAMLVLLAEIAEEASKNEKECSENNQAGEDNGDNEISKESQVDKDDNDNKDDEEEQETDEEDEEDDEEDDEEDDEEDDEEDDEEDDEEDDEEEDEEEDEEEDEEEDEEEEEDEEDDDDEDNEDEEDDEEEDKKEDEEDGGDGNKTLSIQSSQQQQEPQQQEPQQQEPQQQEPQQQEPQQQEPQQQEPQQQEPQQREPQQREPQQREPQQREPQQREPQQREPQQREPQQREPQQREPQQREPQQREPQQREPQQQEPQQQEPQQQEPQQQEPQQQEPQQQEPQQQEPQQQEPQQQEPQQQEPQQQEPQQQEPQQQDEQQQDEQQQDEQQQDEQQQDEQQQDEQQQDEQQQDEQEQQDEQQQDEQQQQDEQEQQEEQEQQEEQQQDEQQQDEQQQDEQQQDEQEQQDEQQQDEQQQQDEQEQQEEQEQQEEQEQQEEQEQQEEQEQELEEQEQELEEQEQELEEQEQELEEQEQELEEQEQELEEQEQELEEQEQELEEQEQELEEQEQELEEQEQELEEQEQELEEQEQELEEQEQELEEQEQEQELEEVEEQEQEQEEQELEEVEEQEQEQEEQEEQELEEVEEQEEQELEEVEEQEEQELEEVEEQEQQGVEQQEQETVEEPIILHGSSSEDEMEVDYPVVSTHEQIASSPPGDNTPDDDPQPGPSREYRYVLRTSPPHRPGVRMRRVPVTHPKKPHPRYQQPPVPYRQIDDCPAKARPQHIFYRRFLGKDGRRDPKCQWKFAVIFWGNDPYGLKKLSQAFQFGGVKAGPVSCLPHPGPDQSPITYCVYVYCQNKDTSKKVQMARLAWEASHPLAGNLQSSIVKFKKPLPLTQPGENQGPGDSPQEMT
B2AR ag = agonists of human beta-2 adrenergic receptor inducing internalization. P07550. Am2.2-beta2AR cells, FAP receptor internalization, flow cytometry; reference of the scale not given here. response, % (test concentration not listed). 0.43% of 340,000 active. AID 504454;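 active = response above a set limit, near 3 SD of response in nonfluorescent compounds, cut at about 42% in these data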;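 also: stock transfer was 100 nL into about 11 µL; a reference agonist was the positive control; negative values mostly stem from fluorescent compounds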
Calb FLC = C. albicans growth modulation with fluconazole; growth inhibition, % (test concentration not listed); C. albicans CaCi-2 (fluconazole-resistant clinical isolate) + fluconazole, Alamar Blue growth, 48 h; 0.57% of 300,000 active;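 active = most replicates above 75%; inconclusive = exactly half above 75%; inactive = most below 75%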;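 also: all wells also contain fluconazole at 8 µg/ml as a sub-toxic cotreatment; 0% = median of DMSO wells and 100% = median of geldanamycin control wells; wells of about 8 µL received 7.5 nL stock; the first replicate is given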
ALR inh = blocks human ALR sulfhydryl oxidase activity; P55789; purified ALR, DTT oxidation, H2O2 HRP-luminol luminescence; inhibition, % (concentration not given with the values); 3.8% of 290,000 active; AID 485317;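 active = mean and each replicate at 75% or more; inconclusive = only one of the two met; inactive = neither met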;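 also: stock transfer was 7.5 nL into about 7.5 µL; 0% = neutral wells and 100% = wells with inactivated enzyme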
Beta apoptosis = blocks beta cell apoptosis | 0.8% of 300,000 active | protection from apoptosis, % (concentration not given with the values) | INS-1E cytokine-induced death, ATP luminescence, 48 h; percent of positive-control rescue, neutral wells zero | AID 435005;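 active = all replicates at 75% or more, or half of them and the mean; inconclusive = half reach 75% but not the mean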;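 also: 0% = cytokine-treated negative control wells and 100% = positive control rescue; higher means more ATP so stronger rescue from cytokine killing; wells of about 40 µL received 100 nL stock; the first replicate is given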
rRNA inh HTS OD600 = recorded beside rRNA inh HTS, whose call it bears; OD600 change, %; measured here: OD600 growth;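 optical density of the mix in the first replicate; 0 = DMSO median and -100 = no signal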
rRNA inh HTS RFP = also measured in rRNA inh HTS; calls as there; RFP signal change, %; measured here: RFP humanized mutant strains;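 first replicate; 0 = DMSO median and -100 = no signal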
Starred values were filed as active, the others as inactive; u = inconclusive; x = not tested or not shown. An excerpt; the hit share may differ from the screen's.

| no. | canonical_smiles | rRNA inh HTS | rRNA inh HTS OD600 | rRNA inh HTS RFP | Bfl-1 A1 inh | T cruzi repl | LANA-H2A inh | B2AR ag | Calb FLC | ALR inh | Beta apoptosis |
| --- | --- | --- | --- | --- | --- | --- | --- | --- | --- | --- | --- |
| 1 | FC(F)(F)c1cc(-c2cccs2)nc2cc(-c3cccs3)nn12 | 4 | 2 | -2.5 | 0.4 | 30 | 0.2 | -7 | -4 | -3 | -4 |
| 2 | CCOc1ccc(C(C(=O)NCC2CCCO2)N(Cc2cccc(OC)c2)C(=O)c2snc(C(N)=O)c2N)cc1 (configuration not stated) | -54 | -77 | -16 | -0.2 | -8 | 0.8 | 3 | 10 | x | -4 |
| 3 | CCN(CC)CCCCCC(=O)Nc1ccccc1C(=O)Nc1ccccc1 | 12 | 14 | -1.4 | 0.1 | 12 | -0.2 | -3 | 3 | -6 | -1 |
| 4 | COc1cc(OC)cc(C(=O)Nn2cc(C(=O)N3CCN(C)CC3)c3ccccc3c2=O)c1 | x | x | x | 0.6 | -9 | -0.5 | 4 | -9 | 4 | -7 |
| 5 | CN(C)CCCNCCCNC(=O)/C(=N\O)c1ccccc1 | 13 | 11 | 2.7 | 1.1 | 18 | 3.2 | 3 | 5 | -9 | -2 |
| 6 | O=C1CCCN1c1nccs1 | 12 | 4 | 1.9 | -0.1 | -7 | -4.0 | -1 | -1 | 1 | -5 |
| 7 | Cc1cc(C(=O)NCc2cccs2)n(-c2ccccc2)n1 | 2 | 3 | 1.8 | -0.5 | 0 | 1.3 | 0 | -5 | -8 | -5 |
| 8 | CC1(C)Cc2nc3oc4c(SCC(N)=O)ncnc4c3cc2CO1 | 1 | 4 | -0.4 | -1.3 | 5 | 2.3 | 2 | 4 | x | x |
| 9 | Cc1c(Cl)cccc1N(CC(=O)O)S(C)(=O)=O | x | x | x | -0.5 | 3 | 11* | 2 | 1 | 0 | -6 |
| 10 | Cc1cc(-c2nnc(SCC(=O)Nc3ccc(C)c(C)c3)n2N)n[nH]1 | 4 | 6 | -3.6 | 0.9 | -19 | 4.5 | -3 | -4 | -2 | 2 |
| 11 | COc1ccc(OCCCC(=O)NC(C)c2ccccc2)cc1 (configuration not stated) | x | x | x | 2.2 | 4 | -1.1 | 11 | -3 | -11 | -2 |
| 12 | O=C(Nc1ccccc1C(=O)N1CCCC1)C1COc2ccccc2O1 (configuration not stated) | 11 | 8 | 4.2 | 0.1 | -3 | 3.9 | 2 | -1 | x | -7 |
| 13 | CCC(CC)C(=O)N1c2ccc(F)cc2CCC1C (configuration not stated) | x | x | x | 0.0 | 3 | 0.5 | 6 | -3 | -6 | 0 |
| 14 | O=C(Nc1nc2ccccc2s1)c1cc(-c2ccco2)nc2ccccc12 | 11 | 2 | 1.8 | -0.3 | 7 | -1.9 | 3 | -2 | 5 | -3 |
| 15 | O=C(C[C@@H]1C/C=C\CC[C@H](Cc2ccc(F)cc2)C(=O)OC[C@@H](Cc2ccccc2)NC1=O)NCCO | -5 | 0 | 3.6 | 0.2 | x | x | 0 | x | -4 | -10 |
| 16 | Cc1ccc(S(=O)(=O)N2CCC(C(=O)OCC(=O)N3CC(=O)Nc4ccccc43)CC2)cc1 | x | x | x | -0.7 | -5 | 12 | 17 | u | -11 | -2 |
| 17 | O=C(C[C@@H]1C/C=C\CC[C@@H](Cc2ccc(F)cc2)C(=O)OC[C@@H](Cc2ccccc2)NC1=O)NCCO | -7 | -8 | -3.7 | 0.6 | x | 13 | 4 | x | -5 | -2 |
| 18 | COc1ccc(C2=NOC(C(=O)N3CCN(c4ccccc4OC)CC3)C2)cc1 (configuration not stated) | -1 | 1 | -5.7 | 0.0 | -4 | -4.4 | 11 | -2 | x | -1 |
| 19 | COc1ccc(-c2cnnc(N/N=C/c3c(C)nn(-c4ccccc4)c3Cl)n2)cc1 | x | x | x | -0.1 | 6 | x | 11 | 0 | 0 | 14 |
| 20 | Cc1nc2nc(C)c(CCC(=O)N3CCN(c4ccccn4)CC3)c(C)n2n1 | x | x | x | 0.2 | -6 | -1.8 | -5 | -9 | -8 | -4 |
| 21 | CC(=O)Nc1ccc(S(=O)(=O)N2CCC(C(=O)N[C@@H](Cc3ccccc3)C(=O)O)CC2)cc1 | 8 | 6 | -0.4 | 1.1 | -8 | 4.1 | -11 | 7 | -2 | 3 |
| 22 | Cc1ccc(NC(=O)CN(C)S(=O)(=O)c2ccc3c(c2)n(C)c(=O)c(=O)n3C)c(C)c1 | -7 | -2 | -1.5 | 0.2 | -6 | -2.6 | -7 | 2 | -19 | -3 |
| 23 | O=C(CSc1nnnn1C1CCCC1)NCc1cccs1 | 7 | 10 | 0.4 | -0.1 | -18 | -10 | 4 | -12 | -3 | -2 |
| 24 | COc1ccc(C/C(C)=N/NC(=S)Nc2ccc(Cl)cc2)cc1 | -10 | -3 | 5.5 | 0.2 | -13 | -1.4 | 58* | -1 | x | 2 |
| 25 | Cc1ccc(S(=O)(=O)Nc2cccc(C(=O)N3CCOCC3)c2)cc1 | 14 | 8 | -0.4 | 0.3 | -25 | 3.8 | -2 | 5 | -1 | -4 |
| 26 | CC(OC(=O)c1ccc(-c2ccc(O)cc2)cc1)C(=O)NC1CCCCC1C (configuration not stated) | -2 | -1 | -0.8 | -0.7 | 0 | -2.4 | 17 | x | 34 | 6 |
| 27 | CCN(C(=O)CN1CCN(Cc2ccccc2)CC1)c1c(N)n(Cc2ccccc2)c(=O)[nH]c1=O | 15 | 15 | 1.2 | -1.2 | -9 | -1.2 | -18 | -12 | -3 | x |
| 28 | Cc1ccc(N2C(=O)CC(C3CCCO3)C2=O)cc1 (configuration not stated) | x | x | x | -0.7 | -26 | -5.7 | 2 | 13 | -1 | -4 |
| 29 | O=C(/C=C/c1c[nH]c2ccccc12)c1cccc2ccccc12 | x | x | x | 0.7 | -13 | 2.7 | -2 | 3 | -4 | -2 |
| 30 | C=CCNCCOc1c(C)cc(C)cc1Cl | x | x | x | -0.1 | 22 | -3.7 | 9 | 7 | -13 | -14 |
| 31 | CCC(C)(C)NC(=O)CN(Cc1cccs1)C(=O)C(=O)Nc1ccc2c(c1)OCCO2 | x | x | x | 0.4 | 4 | 5.0 | 6 | -6 | -3 | -4 |
| 32 | c1ccc(-c2nnsc2-c2nc3ccccc3[nH]2)cc1 | -3 | -5 | 3.6 | x | -5 | x | -16 | -22 | x | x |
| 33 | COc1ccc([N+](=O)[O-])cc1NC(=O)C(C)N1CCCC1 (configuration not stated) | 7 | -7 | -3.7 | 0.1 | 11 | 5.5 | -2 | -10 | -3 | -6 |
| 34 | Cc1noc(C)c1S(=O)(=O)N1CCN(S(=O)(=O)c2ccccc2C#N)CC1 | 8 | -1 | -1.5 | -0.8 | 2 | 4.4 | 2 | 10 | -4 | -6 |
| 35 | CCCCCc1nnc(NC(=O)c2ccc(N3CCCC3=O)cc2)s1 | -13 | -19 | 2.6 | -0.4 | 3 | -5.1 | -4 | -11 | -17 | x |
| 36 | CCN(CC(=O)NC1CCCC1)S(=O)(=O)c1ccc(Br)cc1 | -4 | -2 | 0.0 | 0.5 | -3 | 1.1 | -6 | -9 | 3 | 1 |
| 37 | CCOc1ccc(S(=O)(=O)N2CCC(C(=O)NCCN3CCOCC3)CC2)cc1C | 0 | 8 | 0.8 | 0.4 | -6 | 6.2 | 5 | 3 | -8 | x |
| 38 | CCCc1cc(C(=O)NNC(=S)NCc2ccccc2)cs1 | x | x | x | 0.0 | 9 | 0.3 | -25 | 0 | 36 | -17 |
| 39 | Cc1c(N2C(=O)C3C4C=CC(C5CC45)C3C2=O)c(=O)n(-c2ccccc2)n1C (configuration not stated) | 6 | 1 | -1.4 | -0.2 | 3 | 1.6 | -2 | 3 | -5 | -4 |
| 40 | O=[N+]([O-])c1ccc(SCc2ccco2)cc1N1CCOCC1 | -53 | -59 | -19 | -0.8 | 14 | 0.5 | -9 | -2 | -1 | -23 |
| 41 | Cc1cc(C)cc(C(=O)NC(CC(N)=O)c2ccc(N3CCCCCC3)c([N+](=O)[O-])c2)c1 (configuration not stated) | 6 | 4 | 6.6 | -0.2 | -9 | 1.2 | -5 | 12 | x | -5 |
| 42 | O=C(CN(c1ccc(Br)cc1)S(=O)(=O)c1ccc(Cl)c([N+](=O)[O-])c1)NCCc1ccccc1 | 22 | 9 | 0.0 | u | 75* | -1.2 | -6 | -4 | -8 | 3 |
| 43 | CCCC(=O)Nc1ccc2c(c1)C(=O)NC2=O | 6 | 10 | -0.5 | 1.0 | 1 | -0.6 | -16 | -4 | -4 | -7 |
| 44 | Cc1cccc(C)c1C(OCCN(C)C)C1CCCCC1 (configuration not stated) | x | x | x | 0.8 | 10 | 0.3 | 6 | -31 | -7 | 6 |
| 45 | Cc1ccc(S(=O)(=O)C2C(=O)N(C)C3(C)CC2c2ccccc2O3)cc1 (configuration not stated) | x | x | x | 0.3 | 2 | 1.8 | -7 | 9 | -28 | x |
| 46 | CCCOC1CCCN(C(=O)CCc2nnc(CCCCc3ccccc3)o2)C1 (configuration not stated) | -18 | -13 | 13 | -0.4 | 1 | 4.9 | -11 | -2 | -3 | 0 |
| 47 | O=C(NCC(c1ccc(F)cc1)N1CCOCC1)c1ccc([N+](=O)[O-])o1 (configuration not stated) | -18* | 6.6* | 0.0* | -0.7 | x | -2.2 | -6 | x | -41 | -39 |
| 48 | CC1CCC(NC(=O)c2nc(Cn3ccc([N+](=O)[O-])n3)no2)CC1 (configuration not stated) | -13 | 5 | -4.0 | -0.1 | 9 | 4.3 | 3 | 20 | -16 | 5 |
| 49 | Cc1ccccc1N=C1SC(CC(=O)Nc2ccc3ccccc3c2)C(=O)N1Cc1ccccn1 (configuration not stated) | x | x | x | 0.8 | 42 | -2.5 | 5 | 1 | -3 | 3 |
| 50 | CC1CCCN(CCOc2ccc3ccccc3c2Br)C1 (configuration not stated) | -12 | 2 | 5.6 | -0.2 | 37 | -2.7 | 20 | 0 | -11 | 3 |
| 51 | Cc1ccc(C(=O)c2cc([N+](=O)[O-])ccc2N2CCCCC2)cc1C | x | x | x | 0.3 | 6 | -4.5 | 17 | -4 | -5 | x |
| 52 | Cc1ccc(S(=O)(=O)N2CCCCC2)cc1NC(=O)CCOc1ccccc1 | 5 | 3 | -5.5 | 0.9 | 9 | -2.2 | -10 | -24 | -19 | -6 |
| 53 | O=c1c2ccccc2nc2n1C(CBr)CS2 (configuration not stated) | 11 | -6 | -1.6 | 0.5 | -2 | -2.0 | 0 | 0 | 2 | -9 |
| 54 | Cc1ccc(S(=O)(=O)NC2=NCN(CCc3ccccc3)CN2)cc1 | x | x | x | -0.2 | 14 | -6.2 | -1 | -6 | 0 | -7 |
| 55 | O=C(Cc1ccccc1)N1CCN(S(=O)(=O)c2cccc([N+](=O)[O-])c2)CC1 | 8 | 6 | -5.7 | 0.6 | 0 | -8.2 | 7 | 26 | 1 | -1 |
| 56 | COc1cc(/C=N/NC(=O)c2cc(C3CC3)[nH]n2)ccc1O | 3 | 1 | -4.1 | -0.4 | -2 | 0.6 | 2 | 4 | 99* | 5 |
| 57 | O=[N+]([O-])c1ccc(Nc2nc(Cl)nc(NCCO)n2)cc1 | 12 | 15 | 1.6 | 0.1 | 5 | 6.1 | 2 | 27 | -7 | 11 |
